High-throughput results as filed in PubChem BioAssay.
DUX4 txn inh – DUX4-mediated transcription inhibition | 293T-iDUX4 ZSCAN4-Gaussia luciferase reporter, 24 h; hits give low values | activity change, negative = inhibition, % (test concentration not listed) | 37,000 tested, 0.8% active | AID 1224904;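 active = -10% or lower and over 25 points stronger than a control reporter; inconclusive = -10% or lower with a smaller gap; inactive = above -10%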;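 also: 0% = median of neutral control wells and -100% = median of positive control wells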
DUX4 txn inh difference – second read-out of DUX4 txn inh, no call of its own (marks repeat the call); Gaussia minus Italica difference, %; measured here: selective DUX4 reporter inhibition;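 worked out from the two reporters; negative = selective loss of the DUX4 reporter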
DUX4 txn inh control – recorded beside DUX4 txn inh, whose call it bears; activity change, negative = inhibition, %; measured here: Italica tet-on control reporter;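 0 = neutral control and -100 = positive control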
The depositor's hits bear a star; u = inconclusive; x = not tested or not shown; ! = a repeat was not active. Only part of the results is shown (hit frequency here may not be typical).

Order of values – DUX4 txn inh | DUX4 txn inh difference | DUX4 txn inh control
- CCCNC(=O)N(C)C[C@@H]1Oc2cc(C#C[C@H](C)O)ccc2S(=O)(=O)N([C@@H](C)CO)C[C@@H]1C
    -2 | 0 | -2.6
- C/C=C/c1ccc([C@@H]2[C@H](CO)N3C(=O)CN(S(=O)(=O)c4cccc(F)c4)C[C@@H]23)cc1
    7 | 4 | 2.5
- COc1cccc(S(=O)(=O)Nc2ccc3c(c2)[C@@H]2C[C@H](CC(=O)NCCc4ccccc4)O[C@H](CO)[C@@H]2O3)c1
    7 | 9 | -2.2
- OC[C@H]1[C@@H](c2ccccc2)[C@H](CNCC2CCC2)N1CC1CC1
    -1 | 1 | -1.8
- O=C(Cc1ccncc1)N1CC(=O)N2[C@H](C1)[C@@H](c1ccc(C3=CCCC3)cc1)[C@@H]2CO
    5 | 3 | 1.5
- COc1ccc(S(=O)(=O)N(C)C[C@@H]2OCCCC[C@@H](C)Oc3ccc(NC(=O)Nc4cccc5ccccc45)cc3C(=O)N([C@H](C)CO)C[C@H]2C)cc1
    3 | -3 | 6.5
- N#C[C@H]1[C@@H](c2ccc(C#CC3CC3)cc2)[C@H](CO)N1C(=O)c1cccc(F)c1
    0 | 1 | -0.8
- CNC(=O)C[C@H]1CC[C@@H]2[C@H](COc3ccc(NC(=O)C4CC4)cc3C(=O)N2C)O1
    -4 | -2 | -1.1
- O=C(C[C@H]1C[C@@H]2c3cc(NC(=O)Nc4ccccc4F)ccc3O[C@@H]2[C@@H](CO)O1)NCc1ccccn1
    -5 | -7 | 2.2
- COc1ccc2c3c([nH]c2c1)[C@H](CO)N(Cc1ccncc1)CC31CCN(Cc2ccc(-c3ccccn3)cc2)CC1
    u | x | x
- COc1ccc(S(=O)(=O)N[C@@H]2C=C[C@@H](CC(=O)N3CCC(Cc4ccccc4)CC3)O[C@@H]2CO)cc1
    -9 | -8 | -1.0
- CC=Cc1ccc2n(c1=O)C[C@@H]1[C@@H](CO)[C@H](C(=O)N(C)C)[C@H]2N1CC1CCCCC1 (mixture of isomers)
    -8 | -12 | 4.2
- CN1C[C@H]2[C@@H](c3ccccc31)[C@@H](CO)N2C(=O)c1ccccn1
    2 | -1 | 3.6
- COc1ccc2c3c(n(C)c2c1)[C@H](CO)N(CC1CCCCC1)CC31CCN(C(=O)CN(C)C)CC1
    5 | 8 | -3.2
- CN1C(=O)c2cc(NC(=O)Cc3cccs3)ccc2OC[C@@H]2O[C@@H](CC(=O)N[C@@H]3CCN(Cc4ccccc4)C3)CC[C@@H]21
    0 | -1 | 0.7
- C[C@@H]1CN([C@@H](C)CO)C(=O)c2ccccc2-c2ccccc2CO[C@H]1CN(C)S(C)(=O)=O
    35 | 20 | 15
- C[C@H]1CN([C@@H](C)CO)C(=O)CCCn2nncc2CO[C@H]1CN(C)C(=O)OCc1ccccc1
    -4 | -12 | 7.7
- Cc1ccccc1S(=O)(=O)N1CCCCN2[C@H](CO)[C@@H](c3ccc(-c4cccnc4)cc3)[C@@H]2C1
    u | x | x
- C[C@@H](NC(=O)C[C@@H]1CC[C@@H]2[C@H](COC[C@@H](O)CN2C(=O)Nc2cccc(F)c2)O1)c1ccccc1
    -4 | -13 | 9.2
- CC(C)C#Cc1ccc([C@H]2[C@@H](CO)N3C(=O)CN(C(=O)Cc4cccnc4)C[C@H]23)cc1
    11 | 0 | 10

Ordered by molar mass (highest first): some entries from above.
Order of values – DUX4 txn inh | DUX4 txn inh difference | DUX4 txn inh control
- COc1cccc(S(=O)(=O)Nc2ccc3c(c2)[C@@H]2C[C@H](CC(=O)NCCc4ccccc4)O[C@H](CO)[C@@H]2O3)c1
    7 | 9 | -2.2
- COc1ccc2c3c(n(C)c2c1)[C@H](CO)N(CC1CCCCC1)CC31CCN(C(=O)CN(C)C)CC1
    5 | 8 | -3.2
- C[C@@H](NC(=O)C[C@@H]1CC[C@@H]2[C@H](COC[C@@H](O)CN2C(=O)Nc2cccc(F)c2)O1)c1ccccc1
    -4 | -13 | 9.2
- CCCNC(=O)N(C)C[C@@H]1Oc2cc(C#C[C@H](C)O)ccc2S(=O)(=O)N([C@@H](C)CO)C[C@@H]1C
    -2 | 0 | -2.6
- C/C=C/c1ccc([C@@H]2[C@H](CO)N3C(=O)CN(S(=O)(=O)c4cccc(F)c4)C[C@@H]23)cc1
    7 | 4 | 2.5
- CC=Cc1ccc2n(c1=O)C[C@@H]1[C@@H](CO)[C@H](C(=O)N(C)C)[C@H]2N1CC1CCCCC1 (mixture of isomers)
    -8 | -12 | 4.2

(listing goes on)
Order of values – DUX4 txn inh | DUX4 txn inh difference | DUX4 txn inh control
- O=C(O)C[C@@H]1CC[C@@H](NC(=O)CCN2CCCCC2)[C@@H](CO)O1
    -9 | -11 | 1.3
- COCC(=O)N(C[C@@H]1N[C@@H](CO)[C@@H]1c1ccc(-c2cccnc2)cc1)C(C)C
    1 | 1 | 0.0
- CCCN1[C@H](C(=O)NCCN2CCCC2)[C@@H](CO)[C@@H]2Cn3c(ccc(-c4cccnc4)c3=O)[C@@H]21
    1 | 1 | 0.0
- O=C(C[C@H]1CC[C@H]2[C@@H](COC[C@H](O)CN2Cc2cccc(C(F)(F)F)c2)O1)NCc1ccc(F)cc1
    4 | -3 | 7.7
- C[C@H]1CN([C@@H](C)CO)C(=O)c2cccc(NC(=O)NC3CCCCC3)c2O[C@H]1CN(C)Cc1ccc(C(F)(F)F)cc1
    1 | 2 | -1.7
- O=C(NC[C@H]1[C@@H](c2ccccc2)[C@@H](CO)N1Cc1ccccc1)c1ccccn1
    -9 | -8 | -0.6
- CO[C@@H]1CN(C)C(=O)c2cc(NC(=O)C3CC3)ccc2OC[C@@H](C)N(C(=O)CN2CCOCC2)C[C@H]1C
    -1 | -2 | 0.9
- Cc1ccccc1-c1ccc([C@@H]2[C@H](CO)N3CCCCN(C(=O)NC4CCCC4)C[C@@H]23)cc1
    u | x | x
- COc1cccc(CNC(=O)[C@@H]2[C@@H](CO)[C@@H]3Cn4c(ccc(-c5ccncc5)c4=O)[C@H]2N3C(C)=O)c1
    -4 | 0 | -3.4
- O=C(Nc1cc(F)ccc1F)N1C[C@@H]2[C@H](c3ccccc31)[C@@H](CO)N2Cc1ccncc1
    -2 | -1 | -0.8
- Cc1ccccc1S(=O)(=O)N[C@@H]1CC[C@H](CCn2cc(-c3ccc(F)cc3)nn2)O[C@@H]1CO
    -6 | -1 | -4.4
- CCN(C[C@H]1[C@H](c2ccccc2)[C@@H](CO)N1C(=O)C1CC1)C(=O)NC1CCCC1
    2 | 2 | 0.1
- Cc1noc(C)c1NC(=O)Nc1ccc2c(c1)CC(=O)N([C@H](C)CO)C[C@H](C)[C@H](CN(C)Cc1ccc(C(F)(F)F)cc1)O2
    -1 | -1 | -0.1
- O=C(NCC1CC1)[C@@H]1N[C@@H]2c3ccc(-c4ccccc4F)c(=O)n3C[C@@H]2[C@H]1CO
    4 | 8 | -4.8
- O=C(NCCCN1CCOCC1)[C@@H]1[C@@H](CO)[C@@H]2Cn3c(cccc3=O)[C@H]1N2C(=O)C1CCCCC1
    7 | 11 | -4.3
- N#C[C@H]1[C@@H](c2ccccc2-c2ccc(F)cc2)[C@H](CO)N1C(=O)Cc1cccnc1
    11 | -1 | 12
- O=C(Nc1ccccc1F)N1C[C@@H]2[C@H](c3ccccc31)[C@@H](CO)N2C(=O)Nc1ccccc1
    2 | 5 | -3.5
- O=C(CN1CCOCC1)N[C@H]1CC[C@@H](CCn2cc(C3CC3)nn2)O[C@@H]1CO
    5 | 5 | 0.0
- C[C@@H]1CN([C@H](C)CO)C(=O)c2cc(NS(=O)(=O)c3ccc(F)cc3)ccc2O[C@H]1CN(C)Cc1ccc(Oc2ccccc2)cc1
    -1 | 0 | -1.1
- C[C@H](CO)N1C[C@H](C)[C@H](CN(C)Cc2ccc3c(c2)OCO3)Oc2cc(-c3cccc(C(=O)N(C)C)c3)ccc2S1(=O)=O
    4 | 2 | 2.6

By substructure, the compounds so far containing a CF3 group (3)
Order of values – DUX4 txn inh | DUX4 txn inh difference | DUX4 txn inh control
- O=C(C[C@H]1CC[C@H]2[C@@H](COC[C@H](O)CN2Cc2cccc(C(F)(F)F)c2)O1)NCc1ccc(F)cc1
    4 | -3 | 7.7
- C[C@H]1CN([C@@H](C)CO)C(=O)c2cccc(NC(=O)NC3CCCCC3)c2O[C@H]1CN(C)Cc1ccc(C(F)(F)F)cc1
    1 | 2 | -1.7
- Cc1noc(C)c1NC(=O)Nc1ccc2c(c1)CC(=O)N([C@H](C)CO)C[C@H](C)[C@H](CN(C)Cc1ccc(C(F)(F)F)cc1)O2
    -1 | -1 | -0.1

Next structures follow:
Order of values – DUX4 txn inh | DUX4 txn inh difference | DUX4 txn inh control
- CO[C@H]1CN(C)C(=O)c2cc(NC(C)=O)ccc2OC[C@@H](C)N(S(C)(=O)=O)C[C@@H]1C
    -1 | -4 | 3.4
- CN1[C@@H]2c3ccc(-c4ccccc4F)c(=O)n3C[C@@H]2[C@@H](CO)[C@@H]1C(=O)Nc1nccs1
    0 | -1 | 1.4
- O=C(c1cccnc1)N1CC2(C1)[C@H](c1ccccc1)[C@H](CO)N2CC1CC1
    -7 | -9 | 2.3
- Cc1ccc(OC(=O)N(C)C[C@H]2OCc3ccccc3-c3ccccc3C(=O)N([C@H](C)CO)C[C@H]2C)cc1
    5 | -8 | 12
- COc1ccc2c3c([nH]c2c1)[C@@H](CO)N(C(C)=O)CC31CN(C(C)=O)C1
    20 | 6 | 14
- COCC(=O)N1CC(=O)N2[C@@H](CO)[C@@H](c3ccc(-c4ccccc4C)cc3)[C@@H]2C1
    9 | 5 | 3.9
- COC(=O)[C@H]1[C@H](CO)[C@H]2Cn3c(ccc(-c4cccnc4)c3=O)[C@H]2N1Cc1ccccc1F
    14 | 14 | -0.1
- C[C@H](CO)N1C[C@H](C)[C@@H](CN(C)Cc2ccc(C(=O)Nc3ccccc3N)cc2)Oc2c(NC(=O)Nc3ccc4c(c3)OCO4)cccc2C1=O
    4 | 4 | 0.0
- CO[C@@H]1CC[C@H]2CCN(C)C(=O)[C@@H](C)N(C)C(=O)c3cccc(C#N)c3OC[C@H]1O2
    -5 | -8 | 3.2
- C/C=C/c1ccc2c(c1)O[C@H](CN(C)C(=O)C1CCCCC1)[C@H](C)CN([C@H](C)CO)S2(=O)=O
    5 | 4 | 0.7
- COc1ccc(NC(=O)N(C)C[C@H]2Oc3c(NC(=O)CCCCCC(=O)Nc4ccccc4N)cccc3C(=O)N([C@@H](C)CO)C[C@H]2C)cc1
    1 | 3 | -1.3
- C[C@@H]1CCCCO[C@H](CN(C)S(=O)(=O)c2cn(C)cn2)[C@@H](C)CN([C@@H](C)CO)C(=O)c2cc(NC(=O)CCCN(C)C)ccc2O1
    2 | 4 | -1.5
- O=C(c1cccc(F)c1)N1C[C@H]2[C@@H](c3ccccc31)[C@H](CO)N2C(=O)C1CCCCC1
    -4 | -2 | -1.3
- C[C@H]1CN([C@@H](C)CO)C(=O)CCCn2nncc2CO[C@@H]1CN(C)C(=O)Nc1ccc(-c2cccs2)cc1
    5 | 6 | -0.8
- CN1C(=O)c2cc(NC(=O)Cc3ccccc3)ccc2OC[C@@H]2O[C@H](CC(=O)NCc3ccc(Cl)cc3)CC[C@H]21
    2 | 1 | 0.3
- O=C(C[C@@H]1CC[C@@H]2[C@H](COC[C@@H](O)CN2C(=O)c2cnccn2)O1)NCc1ccc(Cl)cc1
    4 | -4 | 8.0
- O=C(CC1CC1)N1CC[C@H]2[C@H](CO)Nc3ccc(-c4ccc(F)cc4)cc3[C@H]21
    4 | 1 | 2.5
- COCC(=O)Nc1ccc2c(c1)C(=O)N(C)C[C@@H](OC)[C@H](C)CN(Cc1cncnc1)[C@H](C)CO2
    1 | -3 | 4.4
- O=C(C[C@@H]1C[C@H]2c3cc(NC(=O)C4CCOCC4)ccc3O[C@H]2[C@@H](CO)O1)NCc1ccc(Oc2ccccc2)cc1
    2 | -4 | 5.3
- O=C(C1CCCC1)N1CC2(C1)[C@H](c1ccccc1)[C@H](CO)N2Cc1ccc(Cl)cc1
    u | x | x
- Cn1cnc(S(=O)(=O)N[C@@H]2CC[C@@H](CC(=O)NCC3CCCCC3)O[C@H]2CO)c1
    3 | 5 | -2.8
- O=C1CN(S(=O)(=O)c2ccccc2)C[C@H]2[C@@H](c3ccc(Br)cc3)[C@@H](CO)N12
    5 | 6 | -0.6
- C[C@@H]1CN([C@@H](C)CO)S(=O)(=O)c2ccc(Br)cc2O[C@H]1CN(C)C(=O)Nc1ccc2c(c1)OCO2
    0 | -1 | 1.9
- O=C(C[C@@H]1CC[C@H]2[C@@H](COC[C@H](O)CN2Cc2ccc(F)cc2)O1)NCCc1ccccc1
    u | x | x
- COc1cccc(CN2C[C@@H]3N[C@H](C2)C3c2ccc(-c3ccncc3)cc2)c1 (stereo partly specified)
    -26*! | -29*! | 3.1*!
- CC=Cc1ccc2n(c1=O)C[C@@H]1[C@@H](CO)[C@H](C(=O)NCCc3cn(C)cn3)[C@H]2N1C(=O)C1CC1 (mixture of isomers)
    8 | 9 | -1.7
- CNC[C@@H]1Oc2cc(C3=CCCC3)ccc2S(=O)(=O)N([C@@H](C)CO)C[C@H]1C
    -3 | -1 | -2.4
- COc1ccc(-c2ccc(C3[C@@H]4CN(S(=O)(=O)c5cn(C)cn5)C[C@H]3N4)cc2)cc1 (stereo partly specified)
    4 | 9 | -5.4
- CN1C(=O)c2cc(NC(=O)c3cnccn3)ccc2OC[C@@H]2O[C@H](CC(=O)NC3CCC3)CC[C@@H]21
    3 | 3 | 0.2
- CC(=O)N1CCCCN2[C@H](C1)[C@H](c1ccc(-c3ccc(F)cc3)cc1)[C@@H]2CO
    12 | -2 | 14
